Shh pathway inh: Sonic Hedgehog pathway inhibition. Shh-LIGHT2 Gli-luciferase reporter, 30 h. inhibition, % (concentration not given with the values). 22,000 compounds, 2.1% hits. AID 2313;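 active = replicate mean of 65% or more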;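 also: pathway switched on by Shh-conditioned medium diluted 1 in 25 in low serum; 100 nL library stock added to about 40 µL; 0% = median of neutral wells and 100% = positive control level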
YB-1 expr inh: YB-1 expression inhibition; delta delta Cp (YB-1 minus CDIP) (test concentration not listed); U2OS, qRT-PCR YB-1 vs CDIP delta delta Cp, 16 h; stronger effect = higher value; zero = DMSO, each unit about twofold; 30,000 compounds, 0.37% hits;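 active = delta delta Cp rounded down to an integer at or above 3, about 3 SD of DMSO wells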;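 also: higher means less YB-1 transcript or more CDIP transcript relative to DMSO; stock transfer was 100 nL into about 100 µL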
MITF inhib: blocks MITF activity; 37,000 compounds, 0.28% hits; TRPM1 promoter luciferase, luminescence, 24 h; inhibition, % (no concentration beside the values);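 active = most replicates at 85% or more, or half of them and the mean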;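 also: human melanocyte line stably carrying TRPM1 promoter luciferase reporter; 0% = vehicle wells and 100% = a positive control; the first replicate is given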
PD-1 reverse act: reversal of PD-1 mediated T-cell inhibition; AID 2316; activation, % (no concentration beside the values); 29,000 tested, under 10 active; primary human CD4 T cells, PD-L1 beads, CellTiter-Glo 96 h;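 active = replicate mean of 50% or more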;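 also: 0% = median vehicle wells and 100% = positive control; 100 nL library stock added to about 50 µL; numbers are from one replicate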
* = called active by the depositor; · = no result given. An excerpt. The share of hits here may be higher or lower than overall.

SMILES | Shh pathway inh | YB-1 expr inh | MITF inhib | PD-1 reverse act
Cc1cc(C)cc(NC(=O)CN(c2ccccc2F)S(C)(=O)=O)c1 | · | · | -14 | 2.3
Cc1cc(O)c2c(c1)C(=O)C1=C(C2=O)C(O)C(O)C(O)C1O (centres undefined) | 32 | 0.022 | · | ·
CCCNc1nc(Cl)nc(NCCC)n1 | · | 0.37 | -7 | 0.2
C[C@H](CO)N1C[C@H](C)[C@H](CN(C)Cc2ccccc2)Oc2c(NS(=O)(=O)c3cn(C)cn3)cccc2C1=O | 38 | -0.18 | 1 | 2.8
C[C@@H]1CN([C@H](C)CO)C(=O)c2cccc(NC(=O)C3CC3)c2O[C@@H]1CN(C)CC1CC1 | -30 | -0.46 | 2 | 1.7
Cc1noc(C)c1NC(=O)N(C)C[C@@H]1Oc2c(NS(=O)(=O)c3cccs3)cccc2C(=O)N([C@@H](C)CO)C[C@H]1C | -54 | -0.05 | -10 | 0.8
CC(C)NC(=O)Nc1ccc2c(c1)CC(=O)N([C@H](C)CO)C[C@@H](C)[C@@H](CN(C)S(=O)(=O)c1ccccc1)O2 | 17 | -0.33 | -3 | -0.7
Cc1ccc(S(=O)(=O)Nc2cccc3c2O[C@H](CN(C)Cc2ccccc2)[C@@H](C)CN([C@H](C)CO)C3=O)cc1 | -15 | 0.091 | 2 | 0.4
CC(C)NC(=O)N(C)C[C@@H]1Oc2ccc(NC(=O)Nc3ccccc3)cc2CC(=O)N([C@@H](C)CO)C[C@@H]1C | -53 | 0.047 | 1 | 1.2
C[C@H](CO)N1C[C@H](C)[C@H](CN(C)Cc2ccc(-c3ccccc3)cc2)Oc2ccc(NS(=O)(=O)c3cn(C)cn3)cc2CC1=O | 10 | 0.52 | 3 | -0.7
COc1ccc(S(=O)(=O)N(C)CC(=O)Nc2ccccc2Br)cc1Cl | · | · | 2 | 1.5
COc1ccc(NC(=O)N(C)C[C@H]2Oc3ccc(NC(=O)CCC(F)(F)F)cc3CC(=O)N([C@H](C)CO)C[C@H]2C)cc1 | -7 | -0.36 | -2 | -0.7
C=CCN1C(=O)CN2c3ccccc3C(C)(C)C12C (centres undefined) | · | -0.45 | 9 | 0.8
C[C@@H]1CN([C@@H](C)CO)C(=O)c2cccc(NC(=O)C3CCCCC3)c2O[C@@H]1CN(C)C(=O)Nc1ccc(F)cc1 | -90 | 0.41 | 4 | 0.1
O=C(COc1ccccc1CO)Nc1ccccc1 | · | · | -84 | -5.6
Cc1ccc(-c2cc(C(=O)NCCN3CCOCC3)no2)cc1 | · | · | -44 | 1.9
COc1ccc(NC(=O)CSc2nc(C)c3c(n2)CCCC3)c([N+](=O)[O-])c1 | · | · | -6 | -1.0
CS(=O)(=O)N(CC(=O)Nc1cccc(Cl)c1)c1ccc(F)cc1 | · | · | 13 | -1.7
CN(C)CCCOc1nn(Cc2ccccc2)c2ccccc12 | 15 | 0.077 | -7 | ·
C[C@@H]1CN([C@H](C)CO)C(=O)c2cccc(NC(=O)c3ccncc3)c2O[C@H]1CN(C)C(=O)Nc1ccccc1 | -4 | -0.24 | -5 | 4.5
Cc1noc(C)c1NC(=O)N(C)C[C@@H]1Oc2ccc(NC(=O)Nc3ccc4c(c3)OCO4)cc2C(=O)N([C@H](C)CO)C[C@H]1C | 4 | -0.086 | 5 | 0.5
COc1ccc(NC(=O)Nc2cccc3c2O[C@@H](CN(C)Cc2ccc(C(=O)O)cc2)[C@@H](C)CN([C@H](C)CO)C3=O)cc1 | -40 | -1.3 | 0 | 1.9
C[C@H]1CN([C@@H](C)CO)C(=O)c2cc(NC(=O)Nc3ccc4c(c3)OCO4)ccc2O[C@H]1CN(C)Cc1ccc(C(F)(F)F)cc1 | -5 | 0.32 | 27 | -1.6
C[C@H](CO)N1C[C@H](C)[C@@H](CN(C)Cc2ccc(C(=O)Nc3ccccc3N)cc2)Oc2c(cccc2N(C)C)C1=O | · | -0.23 | -12 | 0.7
O=C(c1ccccc1)N1CN(C2CCCCC2)Cc2c1sc1c2CCCC1 | -34 | -0.25 | 9 | 0.3
CN(CC(=O)Nc1ccc(Cl)c(Cl)c1)S(=O)(=O)c1ccc(F)cc1 | · | · | 9 | 1.7
COc1ccccc1NC(=O)CSc1nc(-c2ccc(Cl)cc2)cc(C(F)(F)F)n1 | · | · | 19 | 0.6
Cc1ccc(S(=O)(=O)N(C)C[C@@H]2Oc3c(NC(=O)c4cnccn4)cccc3C(=O)N([C@H](C)CO)C[C@@H]2C)cc1 | 11 | 2.8 | -53 | 0.7
COc1ccc(NC(=O)N(C)C[C@@H]2Oc3ccc(NS(=O)(=O)c4c(C)noc4C)cc3C(=O)N([C@@H](C)CO)C[C@H]2C)cc1 | · | 0.041 | -3 | 1.8
COc1ccc(NC(=O)Nc2ccc3c(c2)CC(=O)N([C@H](C)CO)C[C@H](C)[C@H](CN(C)Cc2ccc(Cl)c(Cl)c2)O3)cc1 | 1 | -0.0048 | -8 | 2.1
C[C@@H]1CN([C@@H](C)CO)C(=O)Cc2cc(NS(=O)(=O)c3ccc(F)cc3)ccc2O[C@@H]1CN(C)Cc1ccc(C(F)(F)F)cc1 | -27 | 0.017 | -3 | -2.8
C[C@H](CO)N1C[C@H](C)[C@H](CN(C)CC2CC2)Oc2ccc(NC(=O)CCCCCC(=O)Nc3ccccc3N)cc2C1=O | · | 0.096 | 2 | -0.1
COc1ccc(/C=N/n2c(=O)c3c(ncn3/N=C/c3ccc(OC)cc3)n(C)c2=O)cc1 | · | -0.014 | -5 | 0.0
C[C@@H]1CN([C@H](C)CO)C(=O)c2cccc(NC(=O)Nc3ccc(C(F)(F)F)cc3)c2O[C@@H]1CN(C)Cc1ccc(C(=O)O)cc1 | -20 | -0.091 | 2 | 0.7
Cc1ccc(S(=O)(=O)Nc2ccc3c(c2)C(=O)N([C@@H](C)CO)C[C@@H](C)[C@@H](CN(C)C(=O)Nc2ccc4c(c2)OCO4)O3)cc1 | -12 | 0.42 | 1 | 2.2
C[C@@H]1CN([C@@H](C)CO)C(=O)c2cc(NC(=O)Cc3cn(C)c4ccccc34)ccc2O[C@H]1CN(C)C(=O)Nc1ccc2c(c1)OCO2 | · | 0.59 | 9 | -1.3
CN(c1ccc(C(=O)NCc2ccco2)cc1)S(C)(=O)=O | · | · | -18 | 0.6
C[C@@H]1CN([C@H](C)CO)C(=O)c2cc(NS(=O)(=O)c3ccc(Cl)cc3)ccc2O[C@@H]1CN(C)CC1CCCCC1 | · | 0.046 | -12 | -0.2
Cc1ccc(S(=O)(=O)N(C)C[C@H]2Oc3ccc(NS(C)(=O)=O)cc3C(=O)N([C@H](C)CO)C[C@@H]2C)cc1 | -10 | -0.038 | -1 | -0.9
C[C@@H]1CN([C@@H](C)CO)C(=O)c2cccc(NC(=O)Nc3ccc(C(F)(F)F)cc3)c2O[C@H]1CN(C)Cc1ccc(Cl)c(Cl)c1 | -43 | 0.021 | 32 | -3.4
C[C@H](CO)N1C[C@H](C)[C@H](CN(C)S(=O)(=O)c2ccc(F)cc2)Oc2ccc(NC(=O)CCCN(C)C)cc2C1=O | -10 | 0.07 | 6 | 0.1
CCOc1ccc(C)cc1S(=O)(=O)Nc1cccnc1 | · | · | -7 | 1.1
Nc1ccc(-c2cc(=O)c3cc(O)ccc3o2)cc1 | -71 | 0.4 | 0 | 2.9
COc1ccc(NC(=O)N(C)C[C@H]2Oc3ccc(NS(=O)(=O)c4cccs4)cc3C(=O)N([C@H](C)CO)C[C@H]2C)cc1 | 23 | 0.21 | -5 | -1.1
C[C@@H]1CN([C@@H](C)CO)C(=O)c2cc(NS(C)(=O)=O)ccc2O[C@@H]1CN(C)CC1CC1 | 2 | 0.13 | 3 | -0.3
Cc1ccc(S(=O)(=O)Nc2ccc3c(c2)C(=O)N([C@@H](C)CO)C[C@@H](C)[C@H](CN(C)S(=O)(=O)c2cn(C)cn2)O3)cc1 | -1 | -0.088 | -8 | 1.2
OC(COc1ccccc1Cl)Cn1cnc2ccccc21 (centres undefined) | · | · | -59 | -0.2
C[C@H]1CN([C@@H](C)CO)C(=O)c2cc(NS(C)(=O)=O)ccc2O[C@@H]1CN(C)Cc1ccccc1 | -28 | -0.3 | -8 | 1.8
COc1ccc(C(C)C)cc1S(=O)(=O)Nc1cccc(C(=O)O)c1 | · | · | -20 | 1.4
C[C@H]1CN([C@@H](C)CO)C(=O)c2cc(NC(=O)Nc3ccc(F)cc3)ccc2O[C@@H]1CN(C)Cc1ccc2c(c1)OCO2 | 13 | 0.11 | 2 | 1.1
O=C(CSc1nnc(-c2cnccn2)n1-c1ccccc1)Nc1ccc2c(c1)OCCO2 | · | · | -17 | 1.1
COc1cc(-c2oc3cc(O)cc(O)c3c(=O)c2OC2OC(CO)C(O)C(O)C2O)ccc1O (centres undefined) | -18 | 0.43 | -15 | 1.4
CCCN1C(=O)C(NS(=O)(=O)c2ccc(NC(C)=O)cc2)(C(F)(F)F)C2=C1CC(C)(C)CC2=O (centres undefined) | · | · | -9 | -2.1
O=C(O)c1ccc(CNC(=O)c2ccc(NC(=O)c3ccco3)cc2)cc1 | · | · | -12 | 2.3
C[C@H]1CN([C@@H](C)CO)C(=O)c2cc(NC(=O)CCCCCC(=O)Nc3ccccc3N)ccc2O[C@@H]1CN(C)C(=O)Nc1ccccc1 | · | 0.087 | 3 | 1.9
C[C@H](CO)N1C[C@H](C)[C@H](CN(C)Cc2ccc(C(F)(F)F)cc2)Oc2ccc(NC(=O)Cn3cnnn3)cc2CC1=O | -25 | -0.11 | -15 | 2.0
Nc1nc(SCc2nc(-c3ccccc3)no2)[nH]c(=O)c1-c1ccccc1 | · | · | -7 | 0.0
CC(C)NC(=O)N(C)C[C@@H]1Oc2c(NS(=O)(=O)c3ccc(Cl)cc3)cccc2C(=O)N([C@H](C)CO)C[C@H]1C | -14 | -0.35 | -1 | ·
CCN1CCN(Cc2c(C)[nH]c3ccc(Cl)cc3c2=O)CC1 | · | · | 7 | 0.9
COc1ccc(NC(=O)Nc2ccc3c(c2)C(=O)N([C@H](C)CO)C[C@H](C)[C@H](CN(C)Cc2ccc4c(c2)OCO4)OCCCC[C@@H](C)O3)cc1 | 72* | 0.32 | 17 | 0.1

Molecules from the list above that contain an NH in an aromatic ring (2):
SMILES | Shh pathway inh | YB-1 expr inh | MITF inhib | PD-1 reverse act
Nc1nc(SCc2nc(-c3ccccc3)no2)[nH]c(=O)c1-c1ccccc1 | · | · | -7 | 0.0
CCN1CCN(Cc2c(C)[nH]c3ccc(Cl)cc3c2=O)CC1 | · | · | 7 | 0.9

In another format: entries from further up.
SMILES	Shh pathway inh	YB-1 expr inh	MITF inhib	PD-1 reverse act
COc1ccc(NC(=O)N(C)C[C@H]2Oc3ccc(NS(=O)(=O)c4cccs4)cc3C(=O)N([C@H](C)CO)C[C@H]2C)cc1	23	0.21	-5	-1.1
O=C(c1ccccc1)N1CN(C2CCCCC2)Cc2c1sc1c2CCCC1	-34	-0.25	9	0.3
C[C@@H]1CN([C@H](C)CO)C(=O)c2cccc(NC(=O)c3ccncc3)c2O[C@H]1CN(C)C(=O)Nc1ccccc1	-4	-0.24	-5	4.5
CC(C)NC(=O)N(C)C[C@@H]1Oc2c(NS(=O)(=O)c3ccc(Cl)cc3)cccc2C(=O)N([C@H](C)CO)C[C@H]1C	-14	-0.35	-1	·
COc1ccc(S(=O)(=O)N(C)CC(=O)Nc2ccccc2Br)cc1Cl	·	·	2	1.5
C[C@@H]1CN([C@H](C)CO)C(=O)c2cccc(NC(=O)C3CC3)c2O[C@@H]1CN(C)CC1CC1	-30	-0.46	2	1.7
C[C@H](CO)N1C[C@H](C)[C@H](CN(C)S(=O)(=O)c2ccc(F)cc2)Oc2ccc(NC(=O)CCCN(C)C)cc2C1=O	-10	0.07	6	0.1

New compounds follow:
SMILES | Shh pathway inh | YB-1 expr inh | MITF inhib | PD-1 reverse act
CC(C)(C)c1ccc(SC(=O)c2ccc(OCC(F)(F)F)nc2)cc1 | · | 0.24 | 1 | 0.7
C[C@@H]1CN([C@@H](C)CO)C(=O)c2cc(NS(C)(=O)=O)ccc2O[C@@H]1CN(C)S(=O)(=O)c1cccs1 | 0 | -0.41 | -4 | 1.2
Cc1ccccc1-c1nnc(SCC(=O)Nc2ccc(F)c(Cl)c2)n1C | · | · | 43 | -2.6
Cc1ccccc1-c1nc(S(=O)(=O)c2ccc(Cl)cc2)c(NCCN2CCOCC2)o1 | · | · | -16 | 0.7
COc1ccc(S(=O)(=O)N(C)C[C@@H]2Oc3c(NC(=O)CCCCCC(=O)Nc4ccccc4N)cccc3C(=O)N([C@@H](C)CO)C[C@H]2C)cc1 | · | -0.14 | -5 | -2.3
CC(C)NC(=O)Nc1ccc2c(c1)C(=O)N([C@@H](C)CO)C[C@@H](C)[C@H](CN(C)S(=O)(=O)c1ccccc1)O2 | 1 | -0.043 | 0 | ·

From PubChem BioAssay
